StopGo FLuc – FMDV 2A StopGo reporter, firefly signal | HEK cells with a luciferase reporter of 2A StopGo recoding | Potency, µM (top dose mostly 57.5 µM), for the others: top-dose signal change, negative = less light | 120,000 tested, 0.23% active | AID 1745856; active = well fitted falling curve with a large enough effect; inconclusive = small, poorly fitted or top-dose-only effect; inactive = no such curve, though single readings can be large or run the other way; also: nearly all actives have a fitted effect of over 60% in size; overnight with compound
2A Renilla – lowers the Renilla signal of an FMDV 2A StopGo reporter | HEK cells with a luciferase reporter of 2A StopGo recoding | Potency, µM (top dose mostly 57.5 µM), for inactives: top-dose signal change, negative = less light | 120,000 tested, 0.32% active | AID 1745857; active means well fitted falling curve with a large enough effect; inconclusive means small, poorly fitted or top-dose-only effect; inactive means no such curve, though single readings can be large or run the other way; also: nearly all actives have a fitted effect of over 55% in size; overnight with compound
An asterisk follows results filed as active; ? = inconclusive; & = joins results of further samples; [ ] = remark or other dose. % is scaled to controls: 0 for no effect and ±100 for the full control effect; potency is read from the fitted curve at half-maximal effect.

Structure	StopGo FLuc	2A Renilla
CCOC(=O)c1ccc(NC(=O)CCc2c(C)nc3c(-c4ccc(F)cc4)c(C)nn3c2C)cc1	-22%	-21%
Cc1cc(C)c(NC(=O)CSc2cn(CC(=O)N3CCOCC3)c3ccccc23)c(C)c1	0%	193%[activator]
CC(C)CCn1c(NCCO)nc2c1c(=O)n(C)c(=O)n2C	?	?
Cc1c(O)ccc2c(CN3CCN(c4ccccc4)CC3)cc(=O)oc12	-9%	-8%
COc1ccccc1N1CCN(CC(=O)c2cc(C)n(C3CCS(=O)(=O)C3)c2C)CC1 (stereo not given)	2%	-1%[1.06 µM]
COc1ccc(/C=C(/C#N)c2nc(-c3ccc(-c4ccccc4)cc3)cs2)cc1OC	-5%	-20%
C=CCn1c(N2CCN(c3ccccc3)CC2)nc2c1c(=O)n(C)c(=O)n2C	?	?
CCCOC(=O)c1cccc(NC(=O)c2c(-c3ccccc3Cl)noc2C)c1	?	?

(continued)
Structure	StopGo FLuc	2A Renilla
Cc1cccc(C)c1NC(=O)CCSCCc1ccccn1	-7%	-3%
Cc1nnc(C)n1-c1ccc(C(=O)Nc2cccc(Br)c2)cc1	-2%	21%
Cc1ccc2c(=O)cc(C(=O)Nc3ccc(S(=O)(=O)N4CCCC(C)C4)cc3)oc2c1C (stereo not given)	13%&-8%	7%&5%
CCN(CC)c1sc(S(=O)(=O)c2ccc(C)cc2)nc1S(=O)(=O)c1ccc(C)cc1	21%	145%[activator]
OCc1cccc(Nc2ncnc3c2oc2ccccc23)c1	14%	-7%[1.06 µM]
COc1ccc(CNC(=O)c2nc(-c3nn(-c4ccc(C)cc4)c(=O)n(C)c3=O)no2)cc1	13%	10%
COc1c(Cl)cc(Cl)cc1/C=C(\C#N)c1nc2ccccc2[nH]1	177%[activator]	12%
O=C(c1ccco1)N1CCN(c2nc3ccc(Cl)cc3s2)CC1	-8%	?

Additional structures.
Structure	StopGo FLuc	2A Renilla
CCCCN(Cc1ccccc1)c1ccc(NS(=O)(=O)c2cccc(F)c2)cc1C(=O)O	-1%	55%[activator]
O=C(CN1CCCN(Cc2ccccc2F)S1(=O)=O)Nc1ccc(F)c(Cl)c1	-20%	61%[activator]
CCc1cc(=O)oc2cc(C)c3c(-c4ccc(F)cc4)coc3c12	-2%	-8%
CC[n+]1c(C)ccc2cc(C)ccc21	11%	7%
COc1cc(/C=C(/C#N)C(=O)c2ccccc2)ccc1OC(F)F	3%	-11%[1.06 µM]
O=C(OC1CCCCC1)c1nn(-c2ccccc2)c(=O)c2ccccc12	1%	-5%
Cc1c(C#N)c(NC(=O)CSc2nnnn2CC2CCCO2)n(C2CCCC2)c1C (stereo not given)	-24%	-25%
CCCNC(=O)C(C)Sc1nc2ccccc2nc1C (stereo not given)	-3%	-11%

Carrying on.
Structure	StopGo FLuc	2A Renilla
CC(=O)c1ccc(S(=O)(=O)N2CCN(C(=O)CN3CCC(C)CC3)CC2)cc1	-17%	-12%
CCCCn1c(=O)[nH]c(=O)c2c(C(=O)OCC)cc(-c3ccccn3)nc21	0%	-5%
CCCN(CCC)C(=O)/C=C/c1csc(C)n1	0%	23%
COc1ccc(/C=C2\N=C(c3ccccc3Br)NC2=O)cc1OC	28%	20%
O=C(Nc1cc2c(cc1C(=O)c1ccccc1Cl)OCCO2)c1ccc(Br)cc1	-17%	-14%
O[C@H](COc1cccc(C(F)(F)F)c1)CN1CCC(C(O)(c2ccccc2)c2ccccc2)CC1	-12%	-13%
N#CC(C(=O)C1=Cc2ccccc2OC1)c1nc2ccccc2[nH]1 (stereo not given)	151%[activator]	145%[activator]
CC(Sc1ncnc2ccccc12)C(=O)Nc1ccc(Cl)cc1Cl (stereo not given)	4%	0%

Next section
Structure	StopGo FLuc	2A Renilla
COc1ccc(-c2noc(CCC(=O)NCC3CCCO3)n2)cc1 (stereo not given)	19%	-8%
CC1CCCCC1NC(=O)/C=C/c1cccc(C#N)c1 (stereo not given)	66%[activator]	22%
c1cc(CNC2C3CC4CC(C3)CC2C4)cs1 (stereo not given)	-12%	-12%
CC(C)(C)NC(=O)c1cccc(NC(=O)c2ccc(Cl)c(Cl)c2)c1	?	?
CC1(C2CC2)NC(=O)N(CC(=O)Nc2cnc3ccccc3c2)C1=O (stereo not given)	37%	-3%
Cc1ccc(NC(=O)CSc2nnc(-c3cccs3)n2-n2cccc2)c(C)c1	-3%	-6%
COC(=O)c1sccc1S(=O)(=O)N1CCN(c2ccc(C)cc2C)CC1	1%	121%[activator]
O=C(NCCSC1CCCC1)c1ccncc1	63%[activator]	16%

Next structures.
Structure	StopGo FLuc	2A Renilla
COc1ccc(-n2ncc3c2ncn2nc(COc4ccc(Cl)cc4)nc32)cc1	122%[activator]	0%
COc1ccc2c(CC(=O)OCc3cc(Cl)c4c(c3)OCCO4)coc2c1	6%	5%
CCN1CCN(c2ccccc2NC(=O)c2ccc(NC(=O)c3ccco3)s2)CC1	0%	2%
COc1ccc(-c2cn3c(C)c(C(=O)Nc4cc(C)cc(C)c4)sc3n2)cc1	0%	-7%
CCCn1c(=NC(=O)c2cc3ccccc3o2)c(C(=O)OCC)cc2c(=O)n3ccccc3nc21	-6%	0%
Cc1ccc(-c2nc3ccccc3s2)cc1NC(=O)COc1ccccc1	24%	1%
CC(=O)NCCNC(=O)Cc1nc(-c2ccccc2)oc1C	9%	-2%
O=C(Nc1c(C(=O)N2CCN(c3ccccc3F)CC2)oc2ccccc12)c1c(F)cccc1F	-2%	212%[activator]

Remaining list, next part
SMILES | StopGo FLuc | 2A Renilla
CCn1c(=O)c2sccc2n2c(CCCC(=O)N3CCN(c4ccc(F)cc4)CC3)nnc12 | 14% | -5%
FC(F)(F)c1cccc(-n2c(-c3ccc(Br)cc3)c[n+]3c2CCc2ccccc2-3)c1 | ? | ?
CNc1nc(-c2cc(C)n(-c3c(C)n(C)n(-c4ccccc4)c3=O)c2C)cs1 | -4% | -15%
Cc1ccc(S(=O)(=O)Oc2ccc3c(C)cc(=O)oc3c2)cc1 | 0% | 45%[activator]
COc1ccc(NC(=O)c2cc(S(=O)(=O)N3CCCCC3)c[nH]2)cc1Cl | 2% | 38%[activator]
Cc1ccnc2nc(C(=O)OCC(=O)Nc3ccc(OC(F)F)cc3)nn12 | 5% | -3%
COc1ccc(C(NC(=O)c2nn(C)c(=O)c3ccccc23)C(C)C)cc1 (stereo not given) | -19% | 0%
COc1ccc(N2CCN(C(=O)CNS(=O)(=O)c3ccc(Br)s3)CC2)cc1 | -10% | 57%[activator]
NS(=O)(=O)c1ccc(N/N=C/C=C/c2ccccc2)c([N+](=O)[O-])c1 | 2% | -2%
CCOC(=O)c1c(S(=O)(=O)N2CCCC(C(=O)Nc3cc(C)ccn3)C2)c(C)n(C)c1C (stereo not given) | -14% | -2%

Further entries:
SMILES | StopGo FLuc | 2A Renilla
CCCCN1CCn2c(nc3cc(NC(=O)Cn4nc(C)c5ccccc5c4=O)ccc32)C1 | 30% | 15%
O=C(/C=C/c1ccccc1Cl)Nc1ccccc1C(F)(F)F | 16% | 2%
CCC(=O)N1CCc2cc(Br)cc(S(=O)(=O)N3CCCC(C(=O)Nc4ccc(OC)c(Cl)c4)C3)c21 (stereo not given) | -18% | 40%[activator]
Cc1ccc(-c2nc3c(c(SCC(=O)Nc4ccccc4Cl)n2)Cc2c(CO)cnc(C)c2O3)cc1 | -7% | -7%
C/C(=N/Nc1ccc([N+](=O)[O-])cc1)c1ccncc1 | 62%[activator] | -11%
Cn1c(=O)n(C)c2cc(SCc3ccco3)c(NC(=O)c3ccc(C(C)(C)C)cc3)cc21 | ? | ?
O=C(O)c1ccc(F)c(S(=O)(=O)N2CCCC2)c1 | 11% | 7%
Cc1cccc(NC(=O)CN2C(=O)COc3ccc(S(=O)(=O)Nc4ccccc4)cc32)c1C | 0% | 91%[activator]
CCc1ccc(C(C)NC(=O)CSc2nnc(C3CC3)n2CC(N)=O)cc1 (stereo not given) | -4% | -6%
CC(C)(C)c1ccc(C(CC(=O)O)NC(=O)Cc2ccc(Cl)cc2)cc1 (stereo not given) | 21% | -3%

Compound profiles (already shown):
CCCCN1CCn2c(nc3cc(NC(=O)Cn4nc(C)c5ccccc5c4=O)ccc32)C1 is listed with StopGo FLuc = 30%; 2A Renilla = 15%
Cn1c(=O)n(C)c2cc(SCc3ccco3)c(NC(=O)c3ccc(C(C)(C)C)cc3)cc21 is listed with StopGo FLuc = ?; 2A Renilla = ?

Next section.
SMILES | StopGo FLuc | 2A Renilla
O=C(Cn1cnc2onc(-c3ccc(F)cc3)c2c1=O)Nc1cccc(C(F)(F)F)c1 | 1% | -18%
O=C(CN1CCN(C2CCCCC2)C(=O)C1=O)Nc1ccc(Cl)cc1 | -16% | -9%
Cc1ccc(C(=O)CSc2ncc3c(n2)-c2ccccc2N(Cc2ccc(Cl)cc2)S3(=O)=O)cc1 | 2% | -9%
OC12CC3CC(C1)CC(NC/C=C/c1ccccc1)(C3)C2 | 6% | 12%
COc1ccc(NC(=O)Cn2cnc3c2c(=O)n(C)c(=O)n3C)cc1OC | -2% | -7%
N#Cc1ccc(COC(=O)c2ccc(CN3CCCC3=O)cc2)c(F)c1 | 1% | -11%
Cc1ccc(CSc2oc(-c3cccs3)nc2S(=O)(=O)c2ccc(C)cc2)cc1 | 0% | 53%[activator]
Cc1cccc(NC(=O)C2CCN(S(=O)(=O)c3ccc4c(c3)CCCC(=O)N4)CC2)c1 | -17% | -10%
Cc1ccc(Oc2c(C(F)(F)F)oc3c(CN4CCC(C)CC4)c(O)ccc3c2=O)cc1 | -4% | -3%
Cn1nc(C(=O)NCC2CCC2)c2ccccc2c1=O | 20% | 11%

Following part:
SMILES | StopGo FLuc | 2A Renilla
COc1ccccc1CNC(=O)c1cnc2sc(N3CCCCC3)nn2c1=O | -15% | -8%
Cc1ccc(S(=O)(=O)N2CCN(CC(=O)NC(C)c3cccs3)CC2)cc1 (stereo not given) | 0% | -1%
CCn1c(=N)n(CCOc2ccc(Br)cc2)c2ccccc21 | ? | -3%
CCCCCCNC(=O)c1cccc2ncccc12 | 0% | 13%
O=C(CCc1cn(Cc2ccc(F)cc2)c2ccccc12)NCCc1ccc(Cl)cc1 | -7% | 3%
Cc1cccc(NC(=O)COc2cccc(/C=N/O)c2)c1C | 0% | 13%
CCCCN(Cc1ccccc1)S(=O)(=O)c1ccc2c(c1)CCN2C(=O)C1CCC1 | -3% | 45%[activator]
C=CCn1c(SCCN2CCOCC2)nc2c1c(=O)[nH]c(=O)n2C | -3% | -10%
COc1ccc(C)cc1NC(=O)CN1C(=O)COc2ccc(S(=O)(=O)N3CCC(C)CC3)cc21 | -16% | 6%
COc1ccc(OC)c(CCNC(=O)c2cc3cccc4c3n2CCS4)c1 | -29% | -5%

(continued)
SMILES | StopGo FLuc | 2A Renilla
COc1ccc(C2(c3ccc(OC)cc3)C=Cc3c(c(O)cc4ccccc34)O2)cc1 | ? | ?
CSc1cccc(NC(=O)c2cnn(-c3ccc(F)cc3)c2-n2cccc2)c1 | -18% | -3%
Cc1cc(C)cc(-n2nnnc2SCc2nc3ccsc3c(=O)[nH]2)c1 | 12% | -10%
Cc1ccc(NC(=O)CC(C)(C)CC(=O)O)cc1C | 81%[activator] | 0%[1.06 µM]
CCCS(=O)c1ccc2nc(NC(=O)OC)[nH]c2c1 (stereo not given) | 56%[activator] | 35%[activator]
COc1cc(C=O)ccc1OCc1ccccc1C#N | 0% | 5%
Cc1oc(-c2ccc(Cl)cc2)nc1CS(=O)CC(=O)NCCN1CCOCC1 (stereo not given) | 9% | -1%
CCOC(=O)CNc1nc(Oc2ccc(=O)n(C)n2)nc(N(CC)CC)n1 | 24% | 11%
COc1ccc(CNC(=O)CN2C(=O)CSc3ccc(S(=O)(=O)N4CCCC4)cc32)cc1 | -26% | 9%
Cc1ccc(Cn2cc(CN(C3CC3)S(=O)(=O)c3ccccc3Br)nn2)cc1 | -13% | 0%

Given as labelled records: part of the list above
smiles: CCc1ccc(C(C)NC(=O)CSc2nnc(C3CC3)n2CC(N)=O)cc1 (stereo not given)
  StopGo FLuc = -4% | 2A Renilla = -6%

smiles: CC(C)(C)c1ccc(C(CC(=O)O)NC(=O)Cc2ccc(Cl)cc2)cc1 (stereo not given)
  StopGo FLuc = 21% | 2A Renilla = -3%

smiles: O=C(Cn1cnc2onc(-c3ccc(F)cc3)c2c1=O)Nc1cccc(C(F)(F)F)c1
  StopGo FLuc = 1% | 2A Renilla = -18%

New compounds follow.
SMILES | StopGo FLuc | 2A Renilla
CCOC(=O)c1cc(NC(=O)c2ccc(-c3ccccc3)cc2)ccc1N1CCOCC1 | -5% | -4%
O=C(CCN1CCC(c2ccccc2)C1)c1cccs1 (stereo not given) | 129%[activator] | 29%
COc1ccc(NC(=O)c2cc[n+]([O-])cc2)cc1 | 12% | 4%
COc1ccc(CNC(=O)c2ccc3c(c2)nc2n3CCC(C)C2)c(OC)c1 (stereo not given) | 47%[activator] | 38%[activator]
CCOC(=O)N1CCc2c(sc3c2c(=O)n(-c2ccc(CC)cc2)c(=O)n3CC(=O)Nc2ccc(C)cc2)C1 | -17% | 4%
OCCCc1nc2ccc(Cl)cc2[nH]1 | 4% | -9%
CC(=O)N1N=C(c2ccc3c(c2)OCO3)CC1c1ccc2nccnc2c1 (stereo not given) | 27% | -13%
Cc1ccc(C(=O)N(C)C)cc1NC(=O)CC1CC2CCC1C2 (stereo not given) | 15% | 15%
CC(=O)Nc1cccc(-c2csc(Nc3ccccc3)n2)c1 | 18% | ?
C=CCNC(=O)Nc1ccc(CC#N)cc1 | 52%[activator] | 19%
CCOc1ccc2nc(NC(=O)c3nn(Cc4ccccc4)c(=O)c4ccccc34)sc2c1 | 40%[activator] | 1%

Only part of the results is shown (hit frequency here may not be typical).
